# Vaccinia stage: Vaccinia orthopox stage-specific inhibition. Vaccinia-infected cells, mCherry/Venus stage reporter fluorescence; hits give low values; some inactives read as strong as hits. activity change (mCherry), % (concentration not given with the values). hit rate 0.01% among 89,000. AID 1053133;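 active means mCherry past -33% and 40 or more points under the early reporter, replicates agreeing; inconclusive means past -33% without that gap or agreement; tested in A549 cells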;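 further: scaled between vehicle wells and reference inhibitor wells; 23 nL library stock went into each well; one replicate is shown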
# Vaccinia stage Venus: also measured in Vaccinia stage; calls as there; activity change (Venus), %; measured here: Venus reporter, other viral stage;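 negative = less Venus signal; first of two replicates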
# An asterisk follows results filed as active; ? = inconclusive; · = not tested or not shown; & = joins results of further samples.
SMILES,Vaccinia stage,Vaccinia stage Venus
C[C@H](CO)N1C[C@H](C)[C@H](CN(C)Cc2ccc(Cl)c(Cl)c2)Oc2c(NC(=O)c3ccc(-c4nccs4)cc3)cccc2C1=O,?,·
COc1ccc(S(=O)(=O)Nc2ccc3c(c2)C(=O)N([C@@H](C)CO)C[C@@H](C)[C@H](CN(C)Cc2ccncc2)OCCCC[C@H](C)O3)cc1,-3,-18
Cc1ccc(S(=O)(=O)N(C)C[C@@H]2OCc3ccccc3-c3c(n(C)c4ccccc34)C(=O)N([C@H](C)CO)C[C@H]2C)cc1,-33,-22
C[C@@H]1CN([C@@H](C)CO)S(=O)(=O)c2ccc(-c3ccncc3)cc2O[C@@H]1CN(C)S(=O)(=O)c1ccccc1F,-33,-30
COCC(=O)Nc1ccc2c(c1)[C@H]1C[C@H](CC(=O)NCCN3CCCCC3)O[C@H](CO)[C@H]1O2,13,8
CC1C=NC(S(=O)(=O)N2CC[C@@H]3[C@@H](CO)N(C)c4ccc(C5=CCCCC5)cc4[C@@H]32)=N1 (stereo partly drawn),0,0
C[C@@H]1CCCCO[C@H](CN(C)CC2CCCCC2)[C@H](C)CN([C@H](C)CO)C(=O)c2cc(NS(=O)(=O)c3ccc(F)cc3)ccc2O1,?,·
C[C@H](CO)N1C[C@H](C)[C@H](CN(C)Cc2ccc(Oc3ccccc3)cc2)Oc2ccc(NS(=O)(=O)c3cn(C)cn3)cc2C1=O,10,7
CC(C)NC(=O)Nc1ccc2c(c1)CC(=O)N([C@H](C)CO)C[C@@H](C)[C@H](CN(C)Cc1ccc(Cl)c(Cl)c1)O2,-15,-12
COc1ccccc1NC(=O)N[C@@H]1CC[C@H](CCn2cc(-c3cccnc3)nn2)O[C@H]1CO,-5,8
CCCC(=O)Nc1ccc2c(c1)OC[C@@H](C)N(C(=O)c1ccncc1)C[C@@H](C)[C@@H](OC)CN(C)C2=O,11,1
CC(C)NC(=O)Nc1ccc2c(c1)C(=O)N([C@@H](C)CO)C[C@@H](C)[C@@H](CN(C)Cc1ccc3c(c1)OCO3)OCCCC[C@@H](C)O2,-8,-9
CNC[C@@H]1Oc2cc(-c3cccnc3)ccc2S(=O)(=O)N([C@H](C)CO)C[C@H]1C,-2,-1
C[C@@H]1CCCCO[C@@H](CN(C)S(=O)(=O)c2ccc(F)cc2)[C@H](C)CN([C@@H](C)CO)C(=O)c2cc(NC(=O)Nc3ccc4c(c3)OCO4)ccc2O1,-16,-10
C[C@@H]1CCCCO[C@@H](CN(C)S(=O)(=O)c2cn(C)cn2)[C@@H](C)CN([C@H](C)CO)C(=O)c2cc(NC(=O)CCCN(C)C)ccc2O1,1,-1

# Arranged by formula weight (rising): some entries from above
SMILES,Vaccinia stage,Vaccinia stage Venus
CNC[C@@H]1Oc2cc(-c3cccnc3)ccc2S(=O)(=O)N([C@H](C)CO)C[C@H]1C,-2,-1
CC1C=NC(S(=O)(=O)N2CC[C@@H]3[C@@H](CO)N(C)c4ccc(C5=CCCCC5)cc4[C@@H]32)=N1 (stereo partly drawn),0,0
COCC(=O)Nc1ccc2c(c1)[C@H]1C[C@H](CC(=O)NCCN3CCCCC3)O[C@H](CO)[C@H]1O2,13,8
CCCC(=O)Nc1ccc2c(c1)OC[C@@H](C)N(C(=O)c1ccncc1)C[C@@H](C)[C@@H](OC)CN(C)C2=O,11,1
CC(C)NC(=O)Nc1ccc2c(c1)CC(=O)N([C@H](C)CO)C[C@@H](C)[C@H](CN(C)Cc1ccc(Cl)c(Cl)c1)O2,-15,-12
Cc1ccc(S(=O)(=O)N(C)C[C@@H]2OCc3ccccc3-c3c(n(C)c4ccccc34)C(=O)N([C@H](C)CO)C[C@H]2C)cc1,-33,-22
C[C@H](CO)N1C[C@H](C)[C@H](CN(C)Cc2ccc(Cl)c(Cl)c2)Oc2c(NC(=O)c3ccc(-c4nccs4)cc3)cccc2C1=O,?,·
C[C@@H]1CCCCO[C@H](CN(C)CC2CCCCC2)[C@H](C)CN([C@H](C)CO)C(=O)c2cc(NS(=O)(=O)c3ccc(F)cc3)ccc2O1,?,·
C[C@@H]1CCCCO[C@@H](CN(C)S(=O)(=O)c2cn(C)cn2)[C@@H](C)CN([C@H](C)CO)C(=O)c2cc(NC(=O)CCCN(C)C)ccc2O1,1,-1
COc1ccc(S(=O)(=O)Nc2ccc3c(c2)C(=O)N([C@@H](C)CO)C[C@@H](C)[C@H](CN(C)Cc2ccncc2)OCCCC[C@H](C)O3)cc1,-3,-18
C[C@@H]1CCCCO[C@@H](CN(C)S(=O)(=O)c2ccc(F)cc2)[C@H](C)CN([C@@H](C)CO)C(=O)c2cc(NC(=O)Nc3ccc4c(c3)OCO4)ccc2O1,-16,-10

# Later entries:
SMILES,Vaccinia stage,Vaccinia stage Venus
CO[C@H]1CN(C)C(=O)c2ccc(NC(=O)C3CCC3)cc2OC[C@H](C)N(Cc2cccnc2)C[C@@H]1C,5,9
C/C=C/c1ccc2c(c1)O[C@H](CN(C)C(=O)Nc1ccccc1)[C@H](C)CN([C@@H](C)CO)S2(=O)=O,-16,-14
Cc1ccc(S(=O)(=O)N2[C@@H]3CNC[C@H]2C3c2ccc(/C=C/c3ccccc3)cc2)cc1 (stereo partly drawn),1&-8,15&9
C[C@H]1CN([C@@H](C)CO)C(=O)Cc2cc(NS(=O)(=O)c3ccccc3)ccc2O[C@@H]1CN(C)Cc1ccc(C(=O)Nc2ccccc2N)cc1,13,6
C[C@@H]1CCCCO[C@H](CN(C)S(C)(=O)=O)[C@@H](C)CN([C@@H](C)CO)C(=O)c2cc(NC(=O)NC3CCCCC3)ccc2O1,16,-2
CN1C(=O)c2cc(NC(=O)C3CCCCC3)ccc2OC[C@@H]2O[C@H](CC(=O)NC3CCCC3)CC[C@@H]21,-2,-3
COCCNC(=O)C[C@H]1CC[C@@H]2[C@H](COC[C@@H](O)CN2C(=O)Nc2ccccc2OC)O1,3,-7
CC(C)NC(=O)N(C)C[C@@H]1Oc2c(NS(=O)(=O)c3cn(C)cn3)cccc2C(=O)N([C@@H](C)CO)C[C@@H]1C,14,4
C[C@@H](NC(=O)C[C@H]1CC[C@@H]2[C@H](COC[C@@H](O)CN2C(=O)Nc2ccccc2)O1)c1ccccc1,-7,-4
Cc1ccc(S(=O)(=O)N(C)C[C@H]2OCCCC[C@@H](C)Oc3ccc(NC(=O)CCCN(C)C)cc3C(=O)N([C@H](C)CO)C[C@@H]2C)cc1,5,-1
CN1CCN(C(=O)c2cc3c(c(-c4cccc(-c5cccc(F)c5)c4)n2)[C@@H](CCO)N(S(=O)C(C)(C)C)C3)CC1 (stereo partly drawn),0,17
C[C@@H]1CN([C@@H](C)CO)C(=O)c2cc(C#CC3CCCCC3)cnc2O[C@H]1CN(C)S(C)(=O)=O,0,-8
CCCNC(=O)Nc1ccc2c(c1)C(=O)N(C)C[C@@H](OC)[C@@H](C)CN[C@H](C)CO2,2,2
C[C@@H]1CN([C@H](C)CO)C(=O)Cc2cc(NC(=O)Nc3ccc(F)cc3)ccc2O[C@@H]1CN(C)Cc1ccncc1,4,14
C[C@@H]1CN([C@@H](C)CO)C(=O)c2cc(-c3cncnc3)cnc2O[C@H]1CN(C)C(=O)c1cccc(F)c1,21,13
CN(C)C(=O)c1cccc(-c2ccc3c(c2)[C@H]2[C@H](CCN2C(=O)C2CC2)[C@@H](CO)N3)c1,2,-1
N#C[C@@H]1[C@@H](c2ccc(C#Cc3cccnc3)cc2)[C@@H](CO)N1C(=O)C1CCCC1,-16,-9
COc1ccc(-c2ccccc2[C@@H]2[C@H](C#N)N(C(=O)c3cccnc3)[C@H]2CO)cc1,5,1
C[C@@H]1CCCCO[C@@H](CN(C)C(=O)CCC(F)(F)F)[C@H](C)CN([C@@H](C)CO)C(=O)c2cc(NC(=O)Cc3ccccc3)ccc2O1,5,-4
O=C(C1CCC1)N1CC2(C1)[C@H](c1ccccc1)[C@@H](CO)N2Cc1ccc(Cl)cc1,-4,3
CCCNC(=O)N1C[C@H](O)COC[C@@H]2O[C@@H](CC(=O)N3CCOCC3)CC[C@H]21,7,3
Cc1ccc(S(=O)(=O)Nc2cccc3c2O[C@@H](CN(C)S(=O)(=O)c2cccs2)[C@H](C)CN([C@@H](C)CO)C3=O)cc1,9,1
Cc1cccc(S(=O)(=O)N[C@@H]2CC[C@H](CCNC(=O)CCN3CCCCC3)O[C@@H]2CO)c1,-11,-3
C[C@@H]1CN([C@@H](C)CO)C(=O)c2ccccc2-c2ccccc2CO[C@@H]1CN(C)CC1CC1,18,6
CCCC(=O)Nc1ccc2c(c1)OC[C@H](C)N(Cc1ccc(-c3ccccn3)cc1)C[C@H](C)[C@H](OC)CN(C)C2=O,-23,-31
C[C@@H]1CN([C@@H](C)CO)S(=O)(=O)c2ccc(C3=CCCC3)cc2O[C@H]1CN(C)CC1CC1,-14,-15
CCCN(C)C[C@@H]1Oc2cc(Br)ccc2S(=O)(=O)N([C@H](C)CO)C[C@@H]1C,-1,-5
CNC[C@H]1Oc2c(NS(=O)(=O)c3ccc(F)cc3)cccc2C(=O)N([C@@H](C)CO)C[C@H]1C,-5,-6
CO[C@H]1CN(C)C(=O)c2ccc(NC(C)=O)cc2OC[C@@H](C)N(C(=O)C2CCOCC2)C[C@H]1C,16,6
CNC[C@@H]1Oc2ccc(NC(=O)Cc3ccccc3)cc2CC(=O)N([C@@H](C)CO)C[C@H]1C,14,15
CCCNC(=O)N1[C@@H](CO)[C@@H]2c3ccccc3N(C(=O)Nc3ccc(F)cc3)C[C@@H]21,12,0
CC(C)NC(=O)N(C)C[C@@H]1Oc2cc(C#Cc3ccc(F)cc3)ccc2S(=O)(=O)N([C@@H](C)CO)C[C@@H]1C,?,·
COc1ccc(CN(C)C[C@H]2Oc3ccc(NS(=O)(=O)c4ccc(Cl)cc4)cc3C(=O)N([C@@H](C)CO)C[C@H]2C)cc1,-33,-21
Cc1noc(C)c1NC(=O)N(C)C[C@H]1Oc2c(NC(=O)C3CCOCC3)cccc2C(=O)N([C@H](C)CO)C[C@@H]1C,7,5
O=C(NCC[C@@H]1CC[C@H](NC(=O)C2CCCCC2)[C@H](CO)O1)Nc1ccc(Cl)cc1,-15,-13
COc1ccccc1-c1ccc([C@@H]2[C@@H](CO)N3CCCCN(C(=O)c4cccnc4)C[C@H]23)cc1,-6,-1
Cc1ccc(S(=O)(=O)N(C)C[C@H]2Oc3c(NC(=O)Nc4ccccc4)cccc3C(=O)N([C@@H](C)CO)C[C@@H]2C)cc1,-14,-16
O=C(C[C@@H]1CC[C@@H]2[C@H](COC[C@H](O)CN2C(=O)Cc2ccccc2)O1)NC1Cc2ccccc2C1,-1,-2
CO[C@@H]1CN(C)C(=O)c2ccc(NS(C)(=O)=O)cc2OC[C@H](C)N(CC2CCOCC2)C[C@@H]1C,13,12
COC(=O)C[C@@H]1C=C[C@@H](NC(=O)c2ccccc2)[C@H](CO)O1,4,7
O=C(C1CCCC1)N1CCCCN2[C@H](CO)[C@H](c3ccc(C#CC4CC4)cc3)[C@@H]2C1,-25,-27
CN1C(=O)c2cc(NC(=O)C3CC3)ccc2OC[C@@H]2O[C@H](CC(=O)NCc3ccccc3F)CC[C@H]21,26,12
CO[C@@H]1CN(C)C(=O)c2cc(NC(=O)c3ccccc3)ccc2OC[C@@H](C)NC[C@@H]1C,5,9
O=C(C[C@@H]1CC[C@H]2[C@@H](COC[C@H](O)CN2C(=O)c2ccncc2)O1)Nc1ccc(-c2ccccc2)cc1,-6,-1
CC(C)C#Cc1cnc2c(c1)C(=O)N([C@H](C)CO)C[C@H](C)[C@@H](CN(C)C(=O)Nc1cc(F)ccc1F)O2,-4,-6
Cc1noc(C)c1NC(=O)Nc1cccc2c1O[C@H](CN(C)Cc1ccc(C(=O)Nc3ccccc3N)cc1)[C@H](C)CN([C@@H](C)CO)C2=O,28,17
C[C@@H]1CN([C@H](C)CO)C(=O)c2cccc(NS(=O)(=O)c3ccc(F)cc3)c2O[C@@H]1CN(C)S(=O)(=O)c1cn(C)cn1,-4,-7
Cc1ccc(S(=O)(=O)Nc2ccc3c(c2)C(=O)N([C@H](C)CO)C[C@@H](C)[C@H](CN(C)S(=O)(=O)c2c(C)noc2C)OCCCC[C@@H](C)O3)cc1,?,·
COc1ccc(C[C@H]2CCc3cnnn3COC[C@@H](Cc3ccccc3)NC2=O)cc1,15,9
C[C@H](CO)N1C[C@H](C)[C@@H](CN(C)C)Oc2ccc(N(C)C)cc2C1=O,8,6
O=C(CN1CCOCC1)N[C@@H]1CC[C@@H](CCNC(=O)Nc2cc(F)ccc2F)O[C@@H]1CO,2,6
O=C(CN1CCOCC1)NCC[C@@H]1CC[C@@H](NC(=O)Nc2ccccc2)[C@@H](CO)O1,17,15
CCC(=O)Nc1ccc2c(c1)C(=O)N(C)C[C@@H](OC)[C@H](C)CN(C(=O)c1cnccn1)[C@H](C)CO2,5,7
C[C@H](CO)N1C[C@H](C)[C@@H](CN(C)C(=O)Nc2ccccc2)Oc2ccc(NC(=O)Cc3ccccc3)cc2CC1=O,8&6,10&6
CC=Cc1ccc2n(c1=O)C[C@@H]1[C@@H](CO)[C@H](C(=O)NCc3ccc4c(c3)OCO4)[C@H]2N1C(=O)COC (mixture of isomers),0,0
CCCC(=O)N(CCc1c[nH]c2ccccc12)[C@@H]1CC(C(=O)NCCO)=C[C@H](Oc2c(I)cc(CO)cc2OC)[C@H]1O,5,5
O=C1CN(S(=O)(=O)Cc2ccccc2)C[C@H]2[C@@H](c3ccc(C#CC4CC4)cc3)[C@@H](CO)N12,-19,-19
COc1ccc2c3c(n(C)c2c1)[C@@H](CO)N(C(=O)Nc1ccc(F)cc1)CC31CCN(Cc2ccccn2)CC1,?,·
CCC(=O)N(C)C[C@H]1Oc2cc(C#CCN(C)C)ccc2S(=O)(=O)N([C@H](C)CO)C[C@@H]1C,23,6
CNC[C@@H]1Oc2ccc(NC(=O)Nc3ccc(C(F)(F)F)cc3)cc2CC(=O)N([C@H](C)CO)C[C@@H]1C,-13,-13

# High-throughput results deposited in PubChem BioAssay by Broad Institute.

# These rows are one share of the data. The share of hits here may be higher or lower than overall.
